GIRK2 act – opens human GIRK2 potassium channels. P48051. actives 0.05% (n = 63,000). AID 1259325. HEK293-GIRK2 thallium flux, Thallos fluorescence. calls only for hits at 25 µM;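 active means among the strongest 0.2% of first-round signals and kept after retests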;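 further: first round at about 10 µM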
Target sequence (P48051 whole entry, looked up): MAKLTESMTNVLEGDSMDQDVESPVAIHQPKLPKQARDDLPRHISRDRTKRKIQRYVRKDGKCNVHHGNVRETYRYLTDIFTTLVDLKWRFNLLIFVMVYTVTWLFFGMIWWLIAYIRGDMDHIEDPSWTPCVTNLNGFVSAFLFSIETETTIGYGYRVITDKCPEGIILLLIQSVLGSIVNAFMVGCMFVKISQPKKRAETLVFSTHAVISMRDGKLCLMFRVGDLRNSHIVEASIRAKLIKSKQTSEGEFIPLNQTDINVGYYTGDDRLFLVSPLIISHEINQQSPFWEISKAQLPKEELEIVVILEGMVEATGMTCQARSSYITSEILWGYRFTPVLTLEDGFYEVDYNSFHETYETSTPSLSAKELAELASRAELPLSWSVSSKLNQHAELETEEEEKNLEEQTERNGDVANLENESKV
Calls only; i = inactive. A portion of the library; count on the stated rates, not on these rows.

Compound | GIRK2 act
CCOc1ccc(-c2cc3c(=O)n(CC(=O)Nc4ccccc4C)ccn3n2)cc1 | i
CC(C)(C)C(=O)N1CCc2ccc(NC(=O)NCCOc3ccccc3)cc21 | i
CCn1cc(-c2nc(-c3ccccn3)no2)c(=O)c2cc(F)c(N3CCC(C)CC3)cc21 | i
CCSc1nnc(NC(=O)c2cc3ccccc3c(=O)s2)s1 | i
CCOc1nn(CC)cc1C(=O)Nc1nnc(SCC(=O)Nc2cc(C)on2)s1 | i
C=CCn1c(=O)c2c(nc3n(-c4ccc(C(F)(F)F)cc4)c(C)c(C)n23)n(C)c1=O | i
COc1ccccc1NC(=O)Cn1nc2c3cc(-c4ccc(C)c(C)c4)nn3ccn2c1=O | i
O=C(/C=C/c1cccs1)NCCn1nc(C2CC2)n(-c2ccccc2)c1=O | i
CC(C)(C)C(=O)N1CCN(c2nnc(SCC(=O)Nc3ccccc3)s2)CC1 | i
COc1ccc2c(CNc3cccc(C(F)(F)F)c3)cc(=O)oc2c1 | i
CC(=O)c1ccc(NC(=O)Cn2nc(N3CCOCC3)c3ccccc3c2=O)cc1 | i
COc1cccc2sc(N3CC(OC(=O)C4CCN(S(C)(=O)=O)CC4)C3)nc12 | i
COc1ccc(-n2ccnc(NCCc3ccc(OC)c(OC)c3)c2=O)cc1Cl | i
Cc1nn(C)c(C)c1CCN(C)c1ncc2c(=O)n(C3CCCC3)c(=O)[nH]c2n1 | i
COc1ccc(-c2csc(/C(C#N)=C/Nc3ccc(C(=O)OC(C)C)cc3)n2)cc1 | i
COc1ccc(S(=O)(=O)NCCC(=O)N2CCCC2)cc1N(C)S(=O)(=O)c1ccccc1 | i
O=C(Cn1cccc(-c2nc(-c3ccc(F)cc3)no2)c1=O)Nc1ccc(Br)cc1 | i
CC(O)(CCc1ccccc1)CNC(=O)Nc1ccc(C(F)(F)F)cc1 (centres undefined) | i
COc1ccc(-n2cc(-c3nc(-c4ccc(OC)c(OC)c4)no3)c3ccccc3c2=O)cc1 | i
CCCCn1c(-c2ccco2)nc2c(c(=O)c3ccccc3n2C)c1=O | i

Rewritten with values ahead of the structure: entries from further up.
GIRK2 act	SMILES
i	CCOc1ccc(-c2cc3c(=O)n(CC(=O)Nc4ccccc4C)ccn3n2)cc1
i	CC(C)(C)C(=O)N1CCc2ccc(NC(=O)NCCOc3ccccc3)cc21
i	CCn1cc(-c2nc(-c3ccccn3)no2)c(=O)c2cc(F)c(N3CCC(C)CC3)cc21
i	CCSc1nnc(NC(=O)c2cc3ccccc3c(=O)s2)s1
i	CCOc1nn(CC)cc1C(=O)Nc1nnc(SCC(=O)Nc2cc(C)on2)s1
i	C=CCn1c(=O)c2c(nc3n(-c4ccc(C(F)(F)F)cc4)c(C)c(C)n23)n(C)c1=O
i	COc1ccccc1NC(=O)Cn1nc2c3cc(-c4ccc(C)c(C)c4)nn3ccn2c1=O
i	O=C(/C=C/c1cccs1)NCCn1nc(C2CC2)n(-c2ccccc2)c1=O
i	CC(C)(C)C(=O)N1CCN(c2nnc(SCC(=O)Nc3ccccc3)s2)CC1
i	COc1ccc2c(CNc3cccc(C(F)(F)F)c3)cc(=O)oc2c1
i	CC(=O)c1ccc(NC(=O)Cn2nc(N3CCOCC3)c3ccccc3c2=O)cc1
i	COc1cccc2sc(N3CC(OC(=O)C4CCN(S(C)(=O)=O)CC4)C3)nc12
i	COc1ccc(-n2ccnc(NCCc3ccc(OC)c(OC)c3)c2=O)cc1Cl
i	Cc1nn(C)c(C)c1CCN(C)c1ncc2c(=O)n(C3CCCC3)c(=O)[nH]c2n1
i	COc1ccc(-c2csc(/C(C#N)=C/Nc3ccc(C(=O)OC(C)C)cc3)n2)cc1

Remaining list, next part:
Compound | GIRK2 act
CC(=O)N=c1sc(S(N)(=O)=O)nn1C | i
O=C(Cn1cccc(S(=O)(=O)N2CCCCCC2)c1=O)Nc1ccc(F)c(F)c1 | i
O=C(/C=C/c1ccc2c(c1)OCO2)NCC#CCN1CCCC1 | i
CCOc1ccc(-c2ccc(=O)n(CCNS(=O)(=O)c3cc(C)ccc3OC)n2)cc1 | i
COc1cccc2cc(C(=O)NCCC3CCCCN3S(=O)(=O)c3cccs3)oc12 (centres undefined) | i
COc1ccccc1C1(CNC(=O)C2CC(=O)N(c3ccc(C)c(C)c3)C2)CCOCC1 (centres undefined) | i
CN(C)c1ccc(C(=O)NCCCn2ccnc2-c2ccccc2)cc1 | i
O=C(Cn1cccn1)N1CCCC(c2nnc(-c3ccccc3F)s2)C1 (centres undefined) | i
CCOc1ccc(-c2noc(Cn3cnc4c(cnn4-c4ccc(OC)cc4)c3=O)n2)cc1OC | i
CCOC(=O)Cc1csc(NC(=O)c2csc(-n3cccc3)n2)n1 | i
C=C1CC(O)[C@H](/C=C/C(O)CCCCC)C1C/C=C\CCCC(=O)O (some centres undefined) | i
Cc1cc(C)c(C)c(S(=O)(=O)NCC(=O)N2CCN(c3ccccc3)CC2)c1C | i
CCOc1ccccc1-c1noc(Cn2cnc3c(nnn3Cc3ccc(Cl)cc3)c2=O)n1 | i
COc1ccc(NC(=O)c2ccc(-c3ccc(OC)cc3[N+](=O)[O-])o2)cc1 | i
Cc1noc(Cc2ccccc2NC(=O)C2CCN(S(C)(=O)=O)CC2)n1 | i
COc1ccc(S(=O)(=O)N2CCCc3cc(NS(=O)(=O)c4ccccc4F)ccc32)cc1 | i
CCOCCn1c(=O)c2c(nc3n2CCCN3c2ccc(CC)cc2)n(C)c1=O | i
Cn1nc(CNC(=O)CSCc2ccccc2)cc1-c1ccco1 | i
CCc1noc(-c2ccc(SCC(=O)Nc3ccc(Br)cc3F)nc2)n1 | i
CNc1oc(-c2ccc(S(=O)(=O)N3CCCCCC3)cc2)nc1C#N | i

Reformatted field by field: part of the list above
> COc1cccc2cc(C(=O)NCCC3CCCCN3S(=O)(=O)c3cccs3)oc12 (centres undefined)
  GIRK2 act = i
> COc1ccc(S(=O)(=O)N2CCCc3cc(NS(=O)(=O)c4ccccc4F)ccc32)cc1
  GIRK2 act = i

Additional structures
Compound | GIRK2 act
COc1cc(COCC2CCN(S(=O)(=O)/C=C/c3ccccc3)CC2)cc(OC)c1 | i
O=S(=O)(c1ccc2c(c1)CCCC2)N1CCC2(CC1)OCCS2 | i
CCOC(=O)CCn1c(=O)c2c(nc3n(-c4cccc(C)c4)c(C)c(C)n23)n(C)c1=O | i
COc1ccc(C2(C)NC(=O)N(CC(=O)Nc3ccc([N+](=O)[O-])cc3)C2=O)cc1 (centres undefined) | i
O=C(Cn1c(=O)c(S(=O)(=O)c2ccccc2)cc2ccccc21)NCc1ccco1 | i
Cc1cc(C)c(NC(=O)CN2C(=O)c3ccccc3C2=O)c(C)c1 | i
CCOc1ccccc1NC(=O)N1CCC(COCc2ccc(F)cc2)CC1 | i
CCC1CCCCN1C(=O)C(=O)c1c[nH]c2ccccc12 (centres undefined) | i
Cc1cccc(S(=O)(=O)NCCNc2cc(N(C)C)nc(C)n2)c1 | i
COCCCn1c(C(=O)NCC(C)C)cc2c(=O)n3cccc(C)c3nc21 | i
CCOc1ccc(N2C(=O)C3N=NN(CC(=O)Nc4ccc(Cl)cc4)C3C2=O)cc1 (centres undefined) | i
O=c1cc(CN2CCN(c3cccc(Cl)c3)CC2)c2cc3c(cc2o1)OCO3 | i
O=C(c1ccccc1Br)N1CCCC(c2nnc(-c3ccccc3F)s2)C1 (centres undefined) | i
COc1ccccc1NC(=O)c1ccc2[nH]c(C)cc(=O)c2c1 | i
O=C(NCCn1cccc1)c1cnn2c1OCCC2 | i
C=CCCC(=O)N1CCC2(CC1)OCCCO2 | i
Cc1cccc(C)c1N1C(=O)N(CC(=O)N2CCC(C)CC2)c2ccccc2S1(=O)=O | i
COc1cc(NC(=O)N2CCN(Cc3nnnn3-c3ccc(F)cc3)CC2)cc(OC)c1 | i
O=C1N(c2ccc(F)cc2)C2CS(=O)(=O)CC2N1c1cccc([N+](=O)[O-])c1 (centres undefined) | i
COc1ccc(-c2noc(CN3N=NC4C(=O)N(c5ccc6c(c5)CCC6)C(=O)C43)n2)cc1OC (centres undefined) | i
CCNC(=O)c1nsc(C(=O)N2CCN(c3ccccn3)CC2)c1N | i
O=C(COc1ccccc1F)NCCN1CCN(c2ccc(F)cc2)CC1 | i
CCc1ccc(N=c2oc3c(C)ncc(CO)c3cc2C(N)=S)cc1 | i
CNc1nn(CC(=O)NCc2ccccc2Cl)c(N)c1-c1nc(-c2ccc(Cl)cc2)no1 | i
COC1(CNC(=O)NCc2cccs2)CCSC1 (centres undefined) | i
O=C1CCCC(=O)N1CCS(=O)(=O)N1CCC(c2ccccc2)C1 (centres undefined) | i
Cc1ccc(-c2cc3c(=O)n(Cc4nc(-c5ccccc5Cl)no4)ncn3n2)c(C)c1 | i
COc1ccc(OCc2ccc(-c3nc(C#N)c(N4CCc5ccccc5C4)o3)o2)cc1 | i
COC(=O)c1ccc2oc(=O)c(S(=O)(=O)N3CCc4ccccc4C3)cc2c1 | i
O=C(COc1ccc(Cl)cc1Cl)NCC1(c2cccs2)CCOCC1 | i
CC1CNCCN1S(=O)(=O)c1cccc2cnccc12 (centres undefined) | i
C[C@@H]1C[C@H]2O[C@@]3(O[C@@H]2C(C)(C)O)C(O)[C@@]2(C)C4CCC5C(C)(C)[C@@H](OC6OC[C@H](O)[C@@H](O)[C@@H]6O)CC[C@@]56C[C@@]46CC[C@]2(C)C13 (some centres undefined) | i
CC1(C)Cc2cccc(OCC(=O)NCC3CCN(S(C)(=O)=O)CC3)c2O1 | i
COc1cc(NC(=O)Cn2c(C)cc(C)c(S(=O)(=O)c3ccccc3)c2=O)cc(OC)c1 | i
CCOC(=O)c1sc(NC(=O)c2ccc3ncsc3c2)c(C(=O)OCC)c1C | i
C#CCOCC1CCN(C(=O)Nc2ccccc2C(F)(F)F)CC1 | i
Cc1ccc(OCC(O)Cn2c(Br)nc3c2c(=O)[nH]c(=O)n3C)cc1C (centres undefined) | i
CCCN(C)c1nccn2c(=O)n(CC(=O)Nc3ccc(F)cc3)nc12 | i
COc1ccc(NC(=O)Nc2cnc(N3CCN(C)CC3)nc2)cc1Cl | i
C[C@@H](O)CCC[C@@H](O)/C=C/[C@H]1C(O)CC(O)C1CCCCCCC(=O)O (some centres undefined) | i

Further compounds.
molecule | GIRK2 act
Cc1ccccc1NC(=O)Cn1nc2ccc(SC3CCCCC3)nn2c1=O | i
Cc1nc(Nc2ccc(NC(=O)Nc3ccccc3C)cc2)cc(-n2cccn2)n1 | i
CC(=O)Cc1nsc(NC(=O)C2=Cc3ccccc3OC=C2)n1 | i
O=C(Cn1cccc(-c2nc(-c3cnccn3)no2)c1=O)Nc1cccc(C(F)(F)F)c1 | i
COc1ccc(C)cc1NC(=O)c1cc(S(=O)(=O)N2CCN(c3ccccc3)CC2)ccc1F | i
O=C(c1cc(-c2ccccc2)n[nH]1)N1CCC(Cn2ccnc2)CC1 | i
C=C(C)COc1ccc2c(c1)O/C(=C\c1cc(OC)c(OC)cc1OC)C2=O | i
CC(C)C(=O)Nc1ccc(S(=O)(=O)NCC2(CO)CC2)cc1 | i
COc1cc(C(=O)Nc2ccc(C(=O)OCC(C)C)cc2)cc(OC)c1OC | i
CC(C)Sc1ccc(CC(=O)Nc2cnoc2)cc1 | i
COc1cc(OC)cc(C(=O)Nc2nnc(-c3cc(C)ccc3C)o2)c1 | i
CC(C)CN(CC(C)C)C(=O)c1cc([N+](=O)[O-])ccc1Cl | i
CCN1CCN(C(=O)c2cc3c(=O)n4ccccc4nc3n2CCCOC)CC1 | i
Cc1cc(OCC(=O)Nc2ccc3c(c2)OCO3)nc(N2CCCC2)n1 | i
O=S(=O)(Cc1ccccc1)NCC1(c2ccccc2)CCOCC1 | i
CC(C)NC(=O)C1CCN(c2nc3ncn(CC(=O)NC4CCc5ccccc54)c(=O)c3s2)CC1 (centres undefined) | i
CCCCn1c(SCC(=O)Nc2ccc3c(c2)OCCO3)nc2c(sc3ncccc32)c1=O | i
Cc1ccc2c(Nc3cccc(OC(F)(F)F)c3)c(C(=O)N3CCSCC3)cnc2n1 | i
COc1ccccc1CNC(=O)CCn1c(=O)c2ccccc2n(Cc2ccccc2Cl)c1=O | i
O=C(Cc1ccc(-c2ccccc2)cc1)Nc1ccc2c(c1)C(=O)NCC2 | i
COC(=O)CNC(=O)Cn1cnc2c(oc3ccccc32)c1=O | i
COc1ccc(-c2ccc(C(=O)Nc3cc(C)ccc3C)o2)c([N+](=O)[O-])c1 | i
COc1ccc(NC(=O)NC2(c3nc(-c4ccncc4)no3)CCCCC2)c(C)c1 | i
Cc1cc(C)c2nc(N(CCCn3ccnc3)C(=O)C3COc4ccccc4O3)sc2c1 (centres undefined) | i
CCC(C(=O)NCc1cnn2ccccc12)c1ccccc1 (centres undefined) | i
CCn1c(=O)c(C(=O)Nc2ccc(C)cc2)cc2cccnc21 | i
CC1CCCN(S(=O)(=O)c2ccc3ccccc3c2)C1 (centres undefined) | i
CCSc1nnc(NC(=O)CN2CC(c3nc(C4CC4)no3)C2)s1 | i
COc1ccc(C)cc1N1CCCn2c1nc1c2c(=O)n(Cc2ccccc2C)c(=O)n1C | i
O=C(CSc1nccc(N2CCCC2)n1)Nc1ccc(Oc2ccccc2)cc1 | i
O=C1CC(Sc2nc3ccccc3s2)C(=O)N1c1cccc(C(F)(F)F)c1 (centres undefined) | i
Cc1cc(C)nc(Nc2nc(C(=O)Nc3nc4c(s3)CCCC4)cs2)n1 | i
O=C(CN1CC(c2nc(-c3ncccn3)no2)C1)NCCc1ccccc1 | i
COCCN(Cc1ccoc1)C(=O)Nc1cccc(C(F)(F)F)c1 | i
CSc1ccc(/C=C2\C=C(CC(=O)Nc3ccc(F)cc3Cl)c3cc(F)ccc32)cc1 | i
CCOC(=O)c1ccc(NC(=O)C(C)n2nc(-c3ccc(OC)cc3)ccc2=O)cc1 (centres undefined) | i
O=C(Nc1nc(-c2cccnc2)cs1)c1ccc(-n2cccn2)nn1 | i
Cc1ccccc1-n1c(=S)sc2c(=O)[nH]c(SCC(=O)Nc3cc(F)ccc3F)nc21 | i
Cc1ccc(Oc2ccc(N(C)S(=O)(=O)c3ccc(F)cc3)cc2)nn1 | i
O=C(NCc1ccccc1OC(F)(F)F)c1ccc(-n2cccn2)nn1 | i
O=C(Nc1ccc(CC(=O)N2CCC(O)CC2)cc1)c1ccc(OC(F)(F)F)cc1 | i
O=S(=O)(c1cccnc1)N1CC(c2nc(C3CC3)no2)C1 | i
COc1ccc(CCn2c(N3CCCC3)nc3c2c(=O)[nH]c(=O)n3C)cc1 | i
Cc1cccc(NC(=O)Cn2c3ccccc3c3ncn(Cc4nc(-c5ccccc5)no4)c(=O)c32)c1 | i
O=C(NCC#CCN1CCOCC1)c1ccc2nsnc2c1 | i

Screening data (PubChem)
